Source: PubChem
PKD1 kinase inh – inhibitors of human PKD1 kinase; 0.056% of 200,000 active; inhibition, %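 (about 10 µM by stock and volumes)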; PKD1 kinase fluorescence polarization assay; Q15139;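 active = inhibition of 50% or more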;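 also: controls were vehicle for no effect and a reference inhibitor for full effect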
RGS16-Gao – modulates binding between human RGS16 and Galphao; O15492+P09471; bead-based flow cytometry RGS16-Galphao binding, fluorescence; actives lie on both sides; binding response (% of control), % at 10 µM; 0.38% of 220,000 active; AID 1441;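 active = below 25% or above 175%, edge rows of some plates excepted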;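 also: Galphao activated by GDP with aluminum fluoride before binding; 100% = wells without compound and 0% = beads without RGS; some results beyond the cut were filed as inactive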
INS promoter inh – TRM-6 insulin promoter activity inhibition. TRM-6 cells (human fetal islet line), insulin promoter-eGFP reporter, imaging; reporter expression induced with tamoxifen. 0.9% of 130,000 active. inhibition, % at 2 µM;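 active = inhibition above the mean plus 3 SD, with well images judged a real hit on visual review, cut at about 60% in these data, passing the limit was not always enough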
HSV augment – increases HSV replication in cells; AID 1956; 0.005% of 220,000 active; HSV replication augmentation in cells, fold increase; maximum fold increase;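 active = peak rise of 1.5-fold or more in the series; tested in PC3 cells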;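 also: first round at 10 µM; read as green reporter fluorescence; hits show the peak of a series up to 25 µM; 1 = signal of infected wells without compound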
GALR2 ag – activates the human galanin receptor 2 | GALR2-expressing cells, agonist activation read-out | activation, %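 (tested at 5 µM)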 | 0.48% of 140,000 active | AID 803;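 active = above mean plus 3 SD of all compounds, about 5% in these data, not always enough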;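 also: 0% = vehicle buffer wells and 100% = reference agonist at full effect; tested in CHO reporter cells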
INS promoter inh cell count – second read-out of INS promoter inh, no call of its own (marks repeat the call); normalized cell count, %; measured here: cell count, toxicity; reference of the scale not given here;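 cells exposed to compound for 48 h; stained nuclei by imaging scaled within each plate; lower means fewer cells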
HSV augment primary fold – also measured in HSV augment; calls as there; fold increase; compound at 10 µM; measured here: primary screen fold increase 10 uM; tested in PC3 cells;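 GFP signal in the first replicate; 1 = infected wells without compound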
* marks the source's active call; other numbers are inactive results; i = inactive; & = joins results of further samples. These rows are one share of the data; rates above refer to the full screens.

SMILES	PKD1 kinase inh	RGS16-Gao	INS promoter inh	INS promoter inh cell count	HSV augment	HSV augment primary fold	GALR2 ag
CC[C@@H]1C(=O)OC[C@@H]1Cc1cncn1C	3&8	57&85&104	50&-10	73&126	i	0.76&0.71	-1.1&-0.9
